# Source: PubChem (National Center for Advancing Translational Sciences (NCATS))
# Rango-impB inh: Rango-importin beta binding inhibition. actives 0.031% (n = 340,000). Q14974. Rango CFP/YFP FRET sensor + importin beta, 45 min. Potency, µM (highest dose often 92.2 µM), inactives show at the highest dose inhibition of complex formation; active = rising FRET ratio curve, often small or poorly fitted; inconclusive = mostly compound fluorescence or quenching in the first reads; inactive = flat curves in all reads;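 further: potency means the concentration at half of the fitted maximal effect; 0% = DMSO wells and 100% = buffer wells lacking importin beta; nearly all actives have a fitted effect of over 15% in size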
#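 FRET biosensor Rango (snurportin 1 IBB between N-terminal EYFP and C-terminal Cerulean), 50 nM in PBS/1 mM DTT/0.02% Tween-20/0.1% BSA, preincubated 5 min RT with compound; 0.125 microM importin beta added, 45 min RT, CFP/YFP FRET ratio read.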
# miR-21 reporter: miR-21 reporter, rising signal. AID 2288. Potency, µM (highest dose often 38.3 µM), without a hit: at the top dose reporter change, positive = more light. HeLa miR-21 FLuc reporter, luciferase, 48 h. 340,000 tested, under 10 active; active = well fitted rising curve with a large enough effect; inconclusive = small, poorly fitted or top-dose-only effect; inactive = no such curve, though single readings can be large or run the other way;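 further: % of control where 0% means no effect; miR-21 action dims this reporter so a rising signal means less miR-21 action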
#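 Using DMEM plus 10% FBS, HeLa miR-21-FLuc cells are incubated with test compounds (final up to about 40uM) for 48 hours; firefly luciferase signal is then imaged following reagent-mediated lysis.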
# Rango release inh: inhibitors of RanGTP-induced Rango-importin beta complex dissociation; O95149+P62826; Biochemical FRET Rango-importin beta, RanGTP-induced dissociation; Potency, µM (highest dose often 46.1 µM), without a hit: top-dose activity change, negative = inhibition; actives 0.071% (n = 340,000); AID 540253; active means falling FRET ratio curve, often poorly fitted, with flat reads before Ran was added; inconclusive means other falling curves, or compound fluorescence or quenching; inactive means flat or rising ratio curve;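 further: potency means the concentration at half of the fitted maximal effect; % of control where 0% means no effect; nearly all actives have a fitted effect of over 45% in size; -100% = wells without RanGTP and RCC1; the record marks most hits as doubtful in a second field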
#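 Quantitative HTS using a FRET biosensor: 0.1 uM Rango, 0.25 uM importin beta, 0.6 uM Ran, 2 mM GTP, 0.2 uM RCC1 final, PBS with DTT, Tween-20 and BSA. Post-read taken 45 min after Ran addition.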
# GLA inh pH 4.5: blocks human alpha-galactosidase A at pH 4.5 | purified enzyme, 4-MU-alpha-Gal fluorescence, pH 4.5 | activity change, negative = inhibition, % at 105 µM | 230,000 tested, under 10 active | AID 1467; inconclusive = small, poorly fitted or top-dose-only inhibition, or a rising curve; inactive = flat fitted curve, though single readings scatter; no compound was filed as active;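 further: 0% = full activity with enzyme and -100% = basal without enzyme; dose as in the result columns while the protocol names 77 µM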
# Target sequence (P06280 whole entry, looked up): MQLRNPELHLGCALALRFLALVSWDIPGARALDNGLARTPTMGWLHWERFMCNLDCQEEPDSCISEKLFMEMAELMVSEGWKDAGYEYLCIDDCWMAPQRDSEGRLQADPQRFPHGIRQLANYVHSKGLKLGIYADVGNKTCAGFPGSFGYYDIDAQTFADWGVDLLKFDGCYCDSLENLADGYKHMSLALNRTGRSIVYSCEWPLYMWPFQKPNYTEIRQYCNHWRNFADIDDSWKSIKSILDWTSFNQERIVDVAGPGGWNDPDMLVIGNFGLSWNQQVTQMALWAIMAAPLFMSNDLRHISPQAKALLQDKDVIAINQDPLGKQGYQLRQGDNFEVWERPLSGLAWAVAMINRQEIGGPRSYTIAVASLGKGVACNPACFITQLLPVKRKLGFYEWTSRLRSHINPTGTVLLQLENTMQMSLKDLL
# The depositor's hits bear a star; u = inconclusive; x = not tested or not shown; & = joins results of further samples; [ ] = remark or other dose. Some of the compounds tested. The share of hits here may be higher or lower than overall.
Rango-impB inh | miR-21 reporter | Rango release inh | GLA inh pH 4.5 | SMILES
-1.8% | x | 5% | x | CC(C)c1cc(C(C)C)c(S(=O)(=O)N2c3ccccc3[C@@]3(Br)C[C@H]4C(=O)N[C@@H](Cc5ccccc5)C(=O)N4[C@@H]23)c(C(C)C)c1
0.5% | 3% | -3% | 1 | C=CCN1C(=O)/C(=C\c2cc(Br)c(OCc3ccccn3)c(OC)c2)SC1=S
-3.3% | -42% | -5% | 3 | COc1cccc(Cn2c(=O)c3[nH]cnc3n(-c3ccccc3C)c2=O)c1
-0.5% | -14% | 15% | x | Cc1ccc(NC(=O)c2ccc3c(c2)CCN3S(C)(=O)=O)c(C)c1
-2.6% | -52% | 5% | x | CCOC(=O)c1c(C)[nH]c(C(=O)OCc2ccccc2)c1C
u | -16% | -15% | 2 | S=C(NCCc1ccccn1)Nc1cccc(Cl)c1
-0.5% | -1% | -11% | 2 | O=C(CCCOc1ccc(Cl)cc1Cl)Nc1ccc(O)cc1C(=O)O
-0.2% | 1% | -15% | x | COc1ccc(O)c(CN2CCC(n3nccc3NC(=O)c3ccccc3Cl)CC2)c1
5.2% | x | -10% | x | Cc1cnc(C(=O)Nc2ccc(C)c(S(=O)(=O)N3CCCCC3)c2)cn1
u | 0% | -24% | -23 | Cn1c(=O)c2[nH]c(SCC(=O)c3ccc(F)cc3)nc2n(C)c1=O
-1.5% | -2% | -6% | 10 | CC(=O)c1c(OCC(=O)O)ccc2c(C)cc(=O)oc12
0.4% | x | -3% | x | CN(Cc1ccccc1)C(=O)c1cccc(NC(=O)Cc2ccc(NC(=O)C3CCN(C(=O)C4CCCCC4)CC3)cc2)c1
0.3% | -28% | -4% | -3&-4 | COc1ccc2c(OC)c3ccoc3nc2c1OC
-1.1% | 7% | 5% | -8 | Cc1ccc(/C=C2\SC(=S)N(c3c(C)n(C)n(-c4ccccc4)c3=O)C2=O)cc1
-0.5% | -2% | 1% | 3 | CN(C(=O)Nc1ccccc1)n1cnc2ccccc2c1=O
-3.3% | 4% | -11% | x | Cc1ccc(C)c(S(=O)(=O)N2CCN(C(=O)C(C)Sc3ccccc3)CC2)c1 (stereo not given)
4.0% | x | -18% | x | Cc1noc(C)c1COC(=O)c1csc2c1CCCC2
u | 1% | -16% | -13 | COC(=O)\C(C(C)=O)=C(/C=C/C=C/C=C/N(C)C)N(C)C
2.9% | -37% | -12% | 0 | C=C(C)C1CC=C(C)/C(=N/NC(=O)c2cccs2)C1 (stereo not given)
u | -23% | u | 9 | CCN/N=C(\Cc1nc2ccccc2[nH]1)c1ccccc1
0.1% | x | 2% | x | CCOC(=O)/C=C1/SCC(=O)N1CC(=O)NC12CC3CC(CC(C3)C1)C2
1.2% | -5% | -15% | x | O=C(NCCN1CCOCC1)C1CCCN(S(=O)(=O)c2ccc(F)cc2)C1 (stereo not given)
-2.0% | -9% | 3% | 4 | Cc1sc2nc(SCc3nc(-c4ccccc4)no3)n(-c3ccccc3)c(=O)c2c1C
-2.1% | -47% | 1% | -1 | CS(=O)(=O)n1nc(-c2ccc(Cl)cc2)nc1SCc1ccccc1
0.2% | x | -15% | x | CCOC(=O)c1c(NC(=O)C2Cc3ccccc3C(=O)O2)sc2c1CCCC2 (stereo not given)
-0.1% | -2% | 3% | x | CN(C)c1ccc(N2C(=NC(=O)CCc3ccccc3)SC3CS(=O)(=O)CC32)cc1 (stereo not given)
-0.6% | -5% | 13% | -13 | COc1ccc(OC)c(NC(=O)CS(=O)(=O)c2ccccc2)c1
5.2% | -2% | 0% | -8 | O=C(CCN1C(=O)c2ccccc2C1=O)Nc1cccnc1
0.5% | 2% | -7% | x | CCN(CC)c1ccc(N2C(=NC(=O)C3CCCO3)SC3CS(=O)(=O)CC32)cc1 (stereo not given)
2.2% | -12% | 4% | -4 | O=C(OCC(=O)c1cccs1)c1ccc(NC(=O)c2ccco2)cc1
-0.2% | -10% | -9% | -4 | CC1(C)CC2(C)Nc3ccccc3N2C(=S)N1 (stereo not given)
-1.9% | -9% | -15% | 5 | O=C(NCc1ccc2c(c1)OCO2)C1CC(=O)N(CCc2ccccc2)C1 (stereo not given)
0.3% | -19% | 1% | -4 | C=CCn1c(CNc2ccccc2)nnc1SCC(=O)N/N=C/c1ccc(O)cc1O
-5.5% | -4% | -1% | x | Cc1c(Cc2ccccc2)c(=O)oc2c(C)c(OCC(=O)NCc3ccccn3)ccc12
-3.0% | -60% | -9% | -5 | CC(C)CCn1cnc2c(sc3nc4c(cc32)CSC(C)(C)C4)c1=O
3.0% | 1% | -5% | 0 | Cc1cccc(Cc2c(C)nc3nc(SCC(=O)NCc4ccco4)nn3c2C)c1
4.3% | 0% | -22% | 1 | O=C1c2cccnc2Nc2ccccc2N1CCCF
-3.6% | 0% | -1% | x | COc1cccc2cc(C(=O)Nc3ccccc3C)/c(=N/NS(=O)(=O)c3ccccc3)oc12
4.1% | 2% | 10% | -5 | CCn1cc(C(=O)O)c(=O)c2cnc(N3CCN(C(=S)NC(=O)c4ccccc4Cl)CC3)nc21
0.4% | -3% | 7% | -2 | CCCOc1cccc(C(=O)N(Cc2cccs2)C2CCS(=O)(=O)C2)c1 (stereo not given)

# Full records as entered above. Order of screens: Rango-impB inh	miR-21 reporter	Rango release inh	GLA inh pH 4.5
# CCOC(=O)/C=C1/SCC(=O)N1CC(=O)NC12CC3CC(CC(C3)C1)C2 reads 0.1%	x	2%	x
# COc1ccc(OC)c(NC(=O)CS(=O)(=O)c2ccccc2)c1 reads -0.6%	-5%	13%	-13

# Sorted by the number under miR-21 reporter (highest first): four from the list above
Rango-impB inh | miR-21 reporter | Rango release inh | GLA inh pH 4.5 | SMILES
5.2% | -2% | 0% | -8 | O=C(CCN1C(=O)c2ccccc2C1=O)Nc1cccnc1
u | -16% | -15% | 2 | S=C(NCCc1ccccn1)Nc1cccc(Cl)c1
-3.3% | -42% | -5% | 3 | COc1cccc(Cn2c(=O)c3[nH]cnc3n(-c3ccccc3C)c2=O)c1
-2.6% | -52% | 5% | x | CCOC(=O)c1c(C)[nH]c(C(=O)OCc2ccccc2)c1C

# Additional structures
Rango-impB inh | miR-21 reporter | Rango release inh | GLA inh pH 4.5 | SMILES
u | -2% | 6% | -3 | O=C(O)/C=C/c1ccc2noc(-c3ccccc3)c2c1
0.3% | -6% | -16% | 6 | CCOC(=O)N1CCC(NC(=O)c2cnn3ccccc23)CC1
-0.1% | -13% | 0% | x | COc1ccc(C2CC(=O)Nc3cc(OC)c(OC)cc32)cc1Br (stereo not given)
5.7% | 1% | 21% | x | Cc1cc(C)cc(NS(=O)(=O)c2csc(C(N)=O)c2)c1
-2.9% | 0% | -5% | x | O=C(CN1C(=O)COc2ccc(Cl)cc21)N1CCOCC1
1.0% | -4% | -2% | 8 | CCOC(=O)C1CCCN(C(=O)c2cn(C)c(=O)c3cc(OC)c(OC)cc23)C1 (stereo not given)
-1.3% | 5% | 12% | -16 | CN1C(=O)C2(NC(=O)c3ccccc3N2C)c2ccccc21 (stereo not given)
u | 16% | u | x | COc1ccc2c3c(cccc13)C(=O)CC2
0.0% | -37% | 0% | -3 | Cc1ccc(NC(=O)OCCNC(=O)OC(C)C)cc1
2.0% | 27% | 3% | -6 | O=C(N/N=C/c1cc([N+](=O)[O-])ccc1O)c1c[nH]c2ccccc12
0.9% | -47% | 1% | -12 | Nn1c(CSc2ccccn2)nc2ccccc2c1=O
3.3% | x | -5% | x | CN(C)S(=O)(=O)c1cccc(NC(=O)COc2ccc3ccccc3c2)c1
-2.8% | -46% | -2% | 8 | Cc1cc(NC(=O)C(C)C)ncc1NC(=O)c1ccccn1
-2.4% | x | -8% | x | COc1ccc(/C=N/NC(=O)c2ccc(-n3cnnn3)cc2)cc1
-0.5% | x | 0% | x | Cc1ccc(OCCC(=O)OCC(=O)N2CCN(S(=O)(=O)c3ccc(C)cc3C)CC2)cc1
-0.1% | x | -4% | x | Cc1ccc(C)c(OCCC(=O)N2CCN(S(=O)(=O)c3cc(C)ccc3C)CC2)c1
2.5% | 24% | 3% | 1 | O=C(NCc1cccnc1)C1CCC(c2ccc(Cl)cc2)CC1 (stereo not given)
-0.2% | -5% | 1% | x | CC(C)n1cc(C(=O)NC2CC(C)(C)Cc3c2cnn3-c2ccccc2)cn1 (stereo not given)
0.7% | -7% | -2% | 1 | Cc1cccc(-c2nc3ccccc3c(=O)n2NC(=O)/C=C/c2ccc([N+](=O)[O-])cc2)c1
-3.6% | -3% | -1% | 0 | O=S1(=O)CCC(NC(=S)N2CCCCC2)C1 (stereo not given)
-1.2% | -6% | -1% | 9 | Cc1ccccc1C(=O)NNC(=O)C12CC3CC(CC(C3)C1)C2
0.9% | 26% | -12% | 2 | FC(F)Sc1ccc(N=C2NN=C(c3ccc4c(c3)OCCO4)CS2)cc1
1.3% | x | 4% | x | Oc1ccccc1C=NN=C1c2ccccc2-c2ccccc21
-1.3% | -8% | 4% | 7 | COc1ccc(-n2nc3cc(C)c(NC(=O)c4cccnc4)cc3n2)cc1
0.5% | 3% | 0% | 10 | COc1ccc(CNc2nc(-c3cccnc3)nn2C(=O)C(C)C)cc1
6.7% | 0% | 6% | 8 | COc1ccc(-n2c(Cc3cc(=O)[nH]c(=O)[nH]3)nnc2SCC(=O)N2CCC(C)CC2)cc1
-2.1% | -3% | -7% | x | Cc1ccc(-n2c(-c3ccccc3)n[nH]c2=S)c(C)c1
-1.3% | x | -9% | x | Nc1ncnc2c1ncn2[C@@H]1O[C@H](CNC(=O)[C@@H](N)Cc2ccccc2)[C@@H](O)[C@H]1O
-0.7% | -3% | -20% | 0 | CC(=O)c1ccc(NC(=O)C2CCCN2S(=O)(=O)c2ccc(F)cc2)cc1 (stereo not given)
4.3% | -7% | -17% | 4 | COc1ccc(N2C(=O)c3ccc(NC(C)=O)cc3C2=O)cc1
-0.9% | -2% | -1% | 3 | CCCC(=O)Nc1ccc2c(c1)nc(CN1CCN(C(C)=O)CC1)n2C
5.6% | -31% | 12% | 5 | C/C(=N\NC(=O)c1ccn(C)n1)c1ccc(NC(=O)C2CCCC2)cc1
-1.3% | 2% | 15% | -12 | CCC(=O)c1ccc(OCc2ccc(C(=O)c3ccccc3)cc2)cc1
u | -49% | -1% | -1[21.1 µM] | c1ccc(NC2=Nc3cccc4cccc2c34)cc1
0.5% | 11% | -3% | 1 | NC(=O)CC(NC(=O)c1ccc(Br)cc1)c1ccc(N2CCN(c3ccc(F)cc3)CC2)c([N+](=O)[O-])c1 (stereo not given)
3.7% | x | 9% | x | C=CCn1c(SCC(=O)N(CCOC)c2c(N)n(CCCC)c(=O)[nH]c2=O)nnc1-c1ccc(Cl)cc1
-0.5% | -7% | -3% | -11 | CSCCC(N=CC1=C(O)CC(C)(C)CC1=O)C(=O)O (stereo not given)
-1.2% | -14% | 26% | 3 | COc1cccc2c(Cl)c(CCCl)c(C)nc12
-0.5% | x | 7% | x | O=C(CN1CCN(C(=O)c2ccc(OCc3cn4ccccc4n3)cc2)CC1)Nc1cccc(F)c1
-2.0% | -3% | 12% | 3 | COc1cccc(NC(=S)N(Cc2cccc(Br)c2)CC2CCC(C(=O)O)CC2)c1 (stereo not given)
-4.1% | -4% | 1% | -6 | COc1ccc(CN2CCc3ccccc3C2)c(OC)c1OC

# 3 compounds drawn at random from the list so far:
Rango-impB inh | miR-21 reporter | Rango release inh | GLA inh pH 4.5 | SMILES
-0.5% | -7% | -3% | -11 | CSCCC(N=CC1=C(O)CC(C)(C)CC1=O)C(=O)O (stereo not given)
-0.7% | -3% | -20% | 0 | CC(=O)c1ccc(NC(=O)C2CCCN2S(=O)(=O)c2ccc(F)cc2)cc1 (stereo not given)
-1.3% | -8% | 4% | 7 | COc1ccc(-n2nc3cc(C)c(NC(=O)c4cccnc4)cc3n2)cc1
